E coli growth – E. coli growth inhibition | OD600 absorbance (no concentration beside the values) | Escherichia coli growth, OD600, 23 h; hits give low values | 0.21% of 330,000 active;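 active means OD600 absorbance below the run mean of sample wells minus 3.6 SD, in any replicate, cut at about 0.56 in these data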;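 further: stock transfer was 300 nL into about 60 µL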
rRNA inh HTS – selective bacterial rRNA inhibition in E. coli. 1.6% of 350,000 active. AID 720706. E. coli WT GFP vs humanized-ribosome RFP mutants, fluorescence, 24 h; hits give low values; DMSO median 0, no signal -100. GFP signal change (wild-type ribosome), % (test concentration not listed);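 active means significant combined selectivity score with lowered wild-type GFP, culture density cut under 30%, mutant RFP and density less affected; inactive means any of these conditions unmet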; further: one replicate is shown; some compounds called inactive have numbers as strong as hits
ALR inh – blocks human ALR sulfhydryl oxidase activity. P55789. purified ALR, DTT oxidation, H2O2 HRP-luminol luminescence. inhibition, % (concentration not given with the values). 3.8% of 290,000 active. AID 485317;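 active means mean and each replicate at 75% or more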;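 further: stock transfer was 7.5 nL into about 7.5 µL; 0% = neutral wells and 100% = wells with inactivated enzyme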
Target sequence (P55789 whole entry, looked up): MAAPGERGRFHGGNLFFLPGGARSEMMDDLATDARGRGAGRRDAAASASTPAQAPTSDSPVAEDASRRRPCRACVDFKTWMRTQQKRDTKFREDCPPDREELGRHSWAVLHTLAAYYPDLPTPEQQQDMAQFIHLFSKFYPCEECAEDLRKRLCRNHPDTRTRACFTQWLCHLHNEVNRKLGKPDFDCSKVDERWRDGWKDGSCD
HNF4A DNA FP – change in binding of human HNF4 alpha to DNA | HNF4a-FITC DNA binding, fluorescence polarization, 1 h | 0.3% of 360,000 active | P41235 | activity change, % at 10 µM; in the data active means activity change above about 30%, passing the limit was not always enough;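 further: controls were the assay level and a saturating level of protein; the project sought stronger binding though the title names inhibitors; some compounds called inactive have numbers as strong as hits; positive values seem to mean higher polarization but the record does not say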
FGF22 binding – shifts melting point of recombinant human FGF22; Q9HCT0; recombinant FGF22 thermal shift, SYPRO orange fluorescence; percent of sucrose octasulfate shift, DMSO zero; calls only at 9.99 µM; 1.5% of 340,000 active;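 active means melting point raised past a set limit in the mean and every replicate; three in four hits are not shown here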
Target sequence (Q9HCT0 whole entry, looked up): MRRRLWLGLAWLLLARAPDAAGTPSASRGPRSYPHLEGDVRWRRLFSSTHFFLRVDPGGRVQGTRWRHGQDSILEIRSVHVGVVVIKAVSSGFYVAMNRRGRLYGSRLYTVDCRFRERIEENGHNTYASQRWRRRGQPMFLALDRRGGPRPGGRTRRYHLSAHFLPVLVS
B2AR ag – agonists of human beta-2 adrenergic receptor inducing internalization. P07550. Am2.2-beta2AR cells, FAP receptor internalization, flow cytometry; reference of the scale not given here. response, % (no concentration beside the values). 0.43% of 340,000 active;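 active means response above a set limit, near 3 SD of response in nonfluorescent compounds, cut at about 42% in these data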;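 further: stock transfer was 100 nL into about 11 µL; a reference agonist was the positive control; negative values mostly stem from fluorescent compounds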
Target sequence (P07550 whole entry, looked up): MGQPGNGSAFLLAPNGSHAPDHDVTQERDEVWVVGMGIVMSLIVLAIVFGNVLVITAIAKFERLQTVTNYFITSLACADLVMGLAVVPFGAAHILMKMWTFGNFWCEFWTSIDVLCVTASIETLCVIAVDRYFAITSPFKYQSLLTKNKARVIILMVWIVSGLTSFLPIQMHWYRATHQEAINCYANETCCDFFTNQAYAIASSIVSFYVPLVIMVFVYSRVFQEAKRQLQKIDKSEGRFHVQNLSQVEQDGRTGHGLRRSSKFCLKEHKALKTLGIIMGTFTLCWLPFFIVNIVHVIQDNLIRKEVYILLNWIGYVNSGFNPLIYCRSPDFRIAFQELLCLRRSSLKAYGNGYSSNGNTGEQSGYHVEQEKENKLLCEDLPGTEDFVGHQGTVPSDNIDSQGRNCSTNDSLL
UCH37 inh – blocks the human deubiquitinase UCH37 | Q9Y5K5 | inhibition, % (no concentration beside the values) | AID 588478 | purified proteasome/UCH37, Ub-AMC cleavage fluorescence | 0.33% of 330,000 active;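 active means mean of two replicates above 20%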;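 further: 0% = compound-free wells with enzyme and 100% = wells lacking proteasome; stock transfer was 100 nL into about 20 µL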
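Test system – human UCH37 enzyme supplied as purified proteasome complex · Incubation – 30 min preincubation with enzyme, 25 min cleavage at room temperature · Detection – AMC fluorescence from Ub-AMC cleavage, excitation 355 nm, emission 460 nm · Benchmarks – no-proteasome wells (full inhibition) and compound-free wells (no inhibition)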
rRNA inh HTS OD600 – further read-out of rRNA inh HTS, marked with its call; OD600 change, %; measured here: OD600 growth;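 optical density of the mix in the first replicate; 0 = DMSO median and -100 = no signal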
rRNA inh HTS RFP – second read-out of rRNA inh HTS, no call of its own (marks repeat the call); RFP signal change, %; measured here: RFP humanized mutant strains;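 first replicate; 0 = DMSO median and -100 = no signal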
* hit, by the source's call; i = inactive; · = not tested or not shown.

Every second line gives: E coli growth	rRNA inh HTS	rRNA inh HTS OD600	rRNA inh HTS RFP	ALR inh	HNF4A DNA FP	FGF22 binding	B2AR ag	UCH37 inh
- O=C1/C(=C/c2cccs2)SC(=S)N1CCCC(=O)N(CCO)c1ccccc1
→ 0.689	1.4	6.0	4.0	-0.7	1.6	i	-3.7	3.2
- CCOC(=O)c1cc2c(=O)n3ccccc3nc2n(Cc2ccco2)c1=NC(=O)c1ccccc1OCC
→ 0.698	-0.8	-2.9	-5.2	89.6*	2.5	i	-1.7	-159.4
- Cn1nc(C(=O)Nc2sccc2C(N)=O)ccc1=O
→ 0.663	·	·	·	-7.7	3.4	·	9.9	4.4
- CCOC(=O)c1ccc(S(=O)(=O)N2CCNCC2)cc1
→ 0.631	·	·	·	-13.9	0.6	·	0.8	0.9
- CC1CCC(NC(=O)CSc2nnnn2C)CC1 (configuration not stated)
→ 0.667	3.5	4.4	-1.9	-1.2	1.0	i	-8.6	1.6
- NS(=O)(=O)c1cccc(NC(=O)CN2CCC(Cc3ccccc3)CC2)c1
→ 0.688	4.0	9.6	-0.9	·	2.0	i	-8.2	1.1
- O=C(CN1CCN(C(=O)c2ccc(-c3nc4ccccc4s3)o2)CC1)Nc1cccc(F)c1
→ ·	2.2	4.4	-2.2	·	-7.3	i	·	·
- CCOC(=O)c1ccccc1NC(=O)CSc1ccc(-c2cccnc2)nn1
→ 0.675	-9.9	-7.8	-3.1	1.2	3.9	i	-0.5	0.2
- CSc1ccccc1NC(=O)CN(C)C(=O)C(C)SCc1nc2sc(C)c(C)c2c(=O)[nH]1 (configuration not stated)
→ 0.715	-12.7	-11.1	-7.2	·	-2.8	i	8.6	2.1
- CC(C)(C)NC(=O)C(=O)NNC(=O)c1ccco1
→ 0.695	15.7	11.2	1.3	4.1	1.3	i	-1.1	3.3
- COc1cccc(C(=O)NCC(=O)N/N=C/c2cccnc2)c1
→ ·	-0.2	0.7	-5.3	-15.8	-1.2	i	0.7	·
- COc1ccccc1N1CCN(S(=O)(=O)CCNC(=O)C2CC2)CC1
→ 0.67	6.5	-4.4	-4.0	11.1	5.1	i	-4.0	1.1
- O=C(Cn1cc([N+](=O)[O-])ccc1=O)NCc1ccc(Cl)cc1Cl
→ 0.682	-4.3	-10.7	3.6	-1.0	-0.3	i	-1.0	-0.4
- CN(Cc1ccccc1)C(=O)c1cccc(NC(=O)Cc2ccc(NC(=O)C3CCN(C(=O)CCc4ccccc4)CC3)cc2)c1
→ 0.718	-5.8	2.6	2.9	·	-4.2	i	21.7	3.1
- COc1cc(SC)ccc1C(=O)Nc1nc(C)cc(C)n1
→ 0.616	8.3	16.4	1.0	51.9	-3.8	i	-13.7	2.1
- Cc1ccc(C2(c3noc(CN(C)Cc4cccnc4)n3)CCCC2)cc1
→ ·	-31.5*	-5.2*	-5.2*	·	-0.8	i	-6.3	·
- Cc1cc(C(=O)N/N=C(\CCC(=O)O)c2cccs2)c2ccccc2n1
→ ·	11.5	8.7	-3.8	0.3	-0.7	·	-0.8	·
- CC(=O)Nc1ccc(NS(=O)(=O)c2ccc3[nH]c(=O)[nH]c3c2)cc1
→ 0.686	16.9	14.5	1.5	-17.7	-4.2	i	-1.9	4.8
- CCCC(C)c1nnc(NC(=O)C(=O)OCC)s1 (configuration not stated)
→ 0.625	7.3	-2.9	-3.5	-0.5	6.4	i	9.0	0.0
- CCOC(=O)CCCCCC(=O)Nc1ccc2c(c1)C(=O)N([C@H](C)CO)C[C@@H](C)[C@H](CN(C)S(=O)(=O)c1cn(C)cn1)O2
→ 0.764	20.1	18.6	0.5	6.6	5.2	i	-6.0	6.6
- O=C(Nc1nncs1)c1cccc(S(=O)(=O)N2CCOCC2)c1
→ 0.662	·	·	·	-3.1	2.0	·	-0.2	2.0
- CCc1c(C)sc(NC(=O)Cc2ccccc2C)c1C(=O)N1CCOCC1
→ 0.736	6.0	-3.9	0.1	-9.0	1.9	i	0.4	-2.2
- COc1ccc(-c2nnn(CC(=O)c3ccc4c(c3)OCCO4)n2)cc1OC
→ 0.727	·	·	·	-18.0	2.0	·	3.8	1.6
- COC(=O)C1=C(CN2CCc3ccccc32)NC(=O)NC1c1cc(C)ccc1C (configuration not stated)
→ 0.748	·	·	·	-7.6	7.5	·	3.4	1.3
- CC(C)CC1NC(=O)c2cc3ccccc3cc2-n2c1nc1ccc(F)cc1c2=O (configuration not stated)
→ ·	-3.5	-7.0	2.6	·	-5.7	i	·	·
- COc1cc(/C=C/C(=O)OCC(=O)N2CCN(S(=O)(=O)c3ccc(C)cc3C)CC2)ccc1O
→ 0.668	·	·	·	42.4	-4.6	·	-0.4	-12.2
- COc1ccc(CCN2CC(C(=O)NCCc3ccccc3C)CCC2=O)cc1 (configuration not stated)
→ ·	-4.2	-6.9	-2.0	-25.9	-1.7	i	-0.8	·
- CS(=O)(=O)N(CCc1ccccc1)CC(=O)NCc1ccccc1
→ 0.684	7.3	-0.4	-10.9	-4.3	25.5	i	4.6	1.7
- CCOc1ccc(NC(=O)C2CCCN(S(=O)(=O)c3cnc[nH]3)C2)cc1 (configuration not stated)
→ 0.688	·	·	·	·	-0.1	·	0.1	4.7
- CS(=O)(=O)c1ccc(C(=O)OCC(=O)NC23CC4CC(CC(C4)C2)C3)cc1[N+](=O)[O-]
→ 0.646	6.0	0.7	-6.8	8.9	-2.9	i	40.6	4.5
- CC(C)COc1ccc(-c2nn(-c3ccccc3)cc2C(=O)Nc2nccs2)cc1
→ 0.717	·	·	·	1.7	2.6	·	-18.5	5.1
- CN(C(=O)COC(=O)COc1ccc2ccccc2c1)c1c(N)n(Cc2ccccc2)c(=O)[nH]c1=O
→ 0.659	11.7	17.7	1.7	-21.1	0.4	i	2.9	0.9
- COc1cc(NC(=O)CCN2CCN(CCO)CC2)cc(OC)c1
→ 0.644	9.2	8.7	2.3	-8.5	0.2	i	-4.2	4.9
- O=[N+]([O-])c1cc(C(F)(F)F)cc([N+](=O)[O-])c1NCCCNc1ccc([N+](=O)[O-])c2cccnc12
→ 0.701	·	·	·	-1.7	-0.1	·	6.0	2.8
- O=C(Cn1c(=O)c2sccc2n(Cc2cccc([N+](=O)[O-])c2)c1=O)NCCc1ccccc1
→ 0.694	12.7	0.7	-10.1	-5.0	-0.9	i	-2.1	1.2
- CCc1ccc(NS(=O)(=O)c2cc3[nH]c(=O)c(=O)[nH]c3cc2C)cc1
→ 0.686	-3.3	-3.3	5.8	-0.5	-0.3	i	3.6	5.9
- NS(=O)(=O)c1ccc(NC(=O)COC(=O)C2CC(=O)N(Cc3ccccc3)C2)cc1 (configuration not stated)
→ 0.655	11.0	17.2	4.1	-6.0	4.0	i	1.7	1.0
- CC1(Oc2ccccc2-c2ccn[nH]2)CCN(Cc2ccc(OC(F)(F)F)cc2)C1 (configuration not stated)
→ ·	-63.0	-74.9	-16.6	·	2.2	i	·	·
- CCOc1ccc2c(c1)nc(NCCCO)n2Cc1ccccc1
→ 0.674	2.9	-6.1	-1.9	14.8	1.2	i	3.1	3.5
- O=C(Nc1nnc(C2CC2)s1)C1CCCO1 (configuration not stated)
→ 0.713	7.7	7.7	-0.8	-6.6	4.8	i	-7.4	-0.8
- O=C(CSc1nnc(-c2cnccn2)n1Cc1ccco1)c1ccc2ccccc2c1
→ 0.654	·	·	·	72.1	1.6	·	3.4	2.7
- COc1ccc2[nH]cc(S(=O)(=O)c3ccc(C(C)C)cc3)c(=O)c2c1
→ 0.709	3.2	-4.0	-4.8	0.5	1.4	i	-2.7	-7.3
- CCN(CC)CCN(C)C(c1ccnc2ccccc12)c1nnnn1-c1ccc2c(c1)OCCO2 (configuration not stated)
→ ·	9.1	-0.5	2.3	·	-1.4	i	·	·
- COc1ccc(Cl)cc1NC(=O)CN(C)CC(=O)N1CC(=O)Nc2ccccc21
→ 0.638	-8.2	-7.6	-0.7	·	7.0	i	8.7	3.8
- CC1CCc2c(sc(Nc3nc4c(F)cccc4s3)c2C(N)=O)C1 (configuration not stated)
→ 0.645	·	·	·	55.0	36.9*	·	-17.4	i
- O=S(=O)(c1cccs1)N1CN(Cc2ccc(F)cc2)c2nc3ccccc3nc21
→ 0.717	·	·	·	-18.9	1.3	·	-7.5	-4.4
- O=C(NCCCOC(=O)c1ccccc1)c1ccccc1
→ 0.661	1.0	-6.8	-0.3	·	1.5	i	-3.5	-1.1
- O=C(OCC(=O)N1CCN(C(=O)c2ccco2)CC1)c1cccc(S(=O)(=O)N2CCc3ccccc32)c1
→ 0.664	-14.0	-23.6	-3.4	-3.1	-0.2	i	2.8	-1.7
- CC1(C)CC(NC(=O)C2CCN(S(=O)(=O)c3ccc(F)cc3)CC2)CC(C)(C)N1
→ 0.637	3.8	5.0	-0.8	-18.0	1.4	i	3.4	1.2
- COC(=O)c1ccc(CNC(=O)c2ccc(S(=O)(=O)N3CCCCCC3)cc2)cc1
→ 0.621	7.6	10.8	-7.8	-5.1	4.2	i	1.0	3.5
- CC(=O)c1ccc(NC(=O)CCNC(=O)c2ccc(Cl)cc2)cc1
→ 0.637	4.7	8.0	-1.0	-2.6	0.6	i	-3.7	0.2
- CN1CCN(C(=O)C2C3C=CC(C3)C2C(=O)O)CC1 (configuration not stated)
→ 0.766	·	·	·	5.2	-8.6	·	5.3	0.7
- Cc1ccc(NCc2nnc(SCC(=O)NCCc3ccccc3)n2C)cc1
→ ·	12.0	-0.4	-3.4	·	1.1	i	3.5	·
- CCCc1nnc(NC(=O)c2oc3ccccc3c2COCC)s1
→ 0.682	6.7	8.5	0.2	·	-0.5	·	1.8	7.6
- CN(Cc1cccc(C(F)(F)F)c1)C(=O)C1CCC(=O)N(CC2CCCCC2)C1 (configuration not stated)
→ 0.708	4.1	14.1	0.2	-5.9	-4.8	i	-0.7	1.8
- CCOC(=O)c1sc(NC(=O)CCCn2nc([N+](=O)[O-])c(Cl)c2C)c(C(=O)OCC)c1C
→ 0.678	3.5	14.2	0.6	-5.8	-4.1	i	-7.0	3.4
- COc1cc(/C=N/NC(=O)c2cc(-c3cccn3C)n[nH]2)cc(OC)c1OC
→ ·	·	·	·	1.5	-2.0	·	-6.3	·
- CCn1nc(C)c(NS(=O)(=O)c2ccc(C)cc2)c1C
→ 0.674	·	·	·	-4.2	-2.3	·	0.6	1.0
- CCc1nc2c(OCCn3cccc3)cccn2c1N(C)C(=O)c1ccccc1F
→ ·	16.3	21.3	-0.4	·	-0.1	i	·	·
- O=S1(=O)CCN(Cc2cccc(C(F)(F)F)c2)CC1
→ 0.651	7.9	4.3	-4.5	-1.5	-0.6	i	-1.5	2.2

The listing continues.
Every second line gives: E coli growth	rRNA inh HTS	rRNA inh HTS OD600	rRNA inh HTS RFP	ALR inh	HNF4A DNA FP	FGF22 binding	B2AR ag	UCH37 inh
- CCN(CC(=O)NCc1ccccc1Cl)CC(=O)Nc1c(F)cccc1F
→ 0.687	-2.8	6.7	-5.0	-3.5	-0.6	i	0.6	5.1
- COc1ccc(S(=O)(=O)n2nc(C)cc2C)cc1OC
→ 0.696	6.3	5.0	0.3	4.7	2.5	i	-7.5	-0.2
- COc1ccc(C(=O)CSc2cc(C)nc3nc(C)nn23)cc1OC
→ 0.654	·	·	·	98.4*	3.7	·	0.8	18.0
- CCOC(=O)c1c(C)nc2sc(C(=O)Nc3ccc(C(C)=O)cc3)c(N)c2c1-c1ccc(OC)cc1
→ 0.76	·	·	·	-21.6	3.2	·	15.0	-41.5
- Nc1nc(CSCc2ccccc2)nc(N2CCOCC2)n1
→ 0.705	·	·	·	-0.8	0.6	·	1.3	1.6
- COc1ccc(Cn2cc(CN3CCS(=O)(=O)N(Cc4ccc(-c5cccc(Cl)c5)cc4)C(C)C3=O)nn2)cc1 (configuration not stated)
→ ·	12.4	4.9	1.6	·	-3.1	i	15.1	·

The list is partial; count on the stated rates, not on these rows.
